High-throughput results deposited in PubChem BioAssay by several laboratories.
Arbovirus inh = antivirals against arbovirus infection, primary screen, cell-based, full library, 10K replicate subset; arbovirus infection cell-based antiviral screen; inhibition, % at 10 µM; actives 0.37% (n = 200,000);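 active = inhibition from about 30%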;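 also: bluetongue infection of BSR cells; cell survival read as ATP light after 72 h; 0% = infected wells without compound and 100% = uninfected wells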
Mtb bLac sens = beta-lactam sensitization of Mtb H37Rv, H37Rv | AID 434955, 2010 | inhibition, % at 25 µM | M. tuberculosis H37Rv growth with meropenem, percent inhibition; hits of this screen are not shown here | actives 0.27% (n = 330,000);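 active = about 74% or more and at least 40 points above the plate without the antibiotic, then above 30% in a dose series; inconclusive = first-round hits that could not be retested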;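 also: growth measured after seven days incubation then overnight dye step; 0% = bacteria only wells and 100% = bacteria with antibiotic; twin plates without the antibiotic show which effects depend on it; some results filed as inactive read as strong as hits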
Mtb growth = M. tuberculosis H37Rv growth inhibitors, H37Rv strain (AID 1626). M. tuberculosis H37Rv growth inhibition; higher % means a stronger effect. inhibition, % at 10 µM, or IC50 in µM where a hit was titrated. actives 0.95% (n = 220,000);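 active = confirmed in a dose series; inconclusive = inhibition above 80% but not taken into the dose series; inactive = below 80% or under 30% at every dose of the series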;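 also: bacteria incubated seven days before Alamar blue readout; 0% = bacteria only wells and 100% = bacteria with antibiotic wells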
YopH PTP inh = YopH tyrosine phosphatase inhibitors, primary screen, biochemical, fluorescence Ex485/Em525 | inhibition, %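 (about 10 µM by stock and volumes)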 | actives 0.16% (n = 140,000);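 active = inhibition of 50% or more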;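 also: controls were vehicle for no effect and minimum signal wells for full effect; inactives centre near -20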
RecA splice inh = Mtb RecA intein splicing inhibitors, primary screen, biochemical, fluorescence, HTS; Protein RecA (Mycobacterium tuberculosis (strain ATCC 25618 / H37Rv)), P9WHJ3; cell-free RecA intein splicing; inhibition, %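 (about 9 µM by stock and volumes)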; actives 0.75% (n = 290,000); in the data active = inhibition above about 30%; inconclusive = no clear call, values can overlap the other calls;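 also: 0% = vehicle wells and 100% = reference inhibitor control wells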
Target sequence (P9WHJ3 whole entry, looked up, canonical isoform): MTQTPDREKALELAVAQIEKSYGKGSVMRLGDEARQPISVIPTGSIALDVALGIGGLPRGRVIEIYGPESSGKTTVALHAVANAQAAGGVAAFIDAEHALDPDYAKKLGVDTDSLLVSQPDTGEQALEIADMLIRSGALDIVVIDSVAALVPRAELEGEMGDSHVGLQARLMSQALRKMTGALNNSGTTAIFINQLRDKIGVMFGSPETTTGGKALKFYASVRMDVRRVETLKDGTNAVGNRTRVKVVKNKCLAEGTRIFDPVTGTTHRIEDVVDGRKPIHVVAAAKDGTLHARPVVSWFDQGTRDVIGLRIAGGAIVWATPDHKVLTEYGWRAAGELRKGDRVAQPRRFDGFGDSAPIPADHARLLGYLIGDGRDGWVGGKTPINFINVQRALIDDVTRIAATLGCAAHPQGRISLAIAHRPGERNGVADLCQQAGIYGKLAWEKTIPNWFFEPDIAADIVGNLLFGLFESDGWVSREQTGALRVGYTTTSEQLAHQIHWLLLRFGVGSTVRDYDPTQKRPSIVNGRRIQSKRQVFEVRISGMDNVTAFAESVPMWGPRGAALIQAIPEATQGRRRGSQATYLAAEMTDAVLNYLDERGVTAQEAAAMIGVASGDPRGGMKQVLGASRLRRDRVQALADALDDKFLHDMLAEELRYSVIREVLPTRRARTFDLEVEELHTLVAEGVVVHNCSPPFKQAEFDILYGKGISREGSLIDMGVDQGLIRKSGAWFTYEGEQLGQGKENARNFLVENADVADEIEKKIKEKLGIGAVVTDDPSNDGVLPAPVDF
Arbovirus inh repeat = further read-out of Arbovirus inh, marked with its call; inhibition, %; measured here: 10K subset replicate screen; many hits read low in the repeat;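 first of two repeat runs on a subset; 0% = infected and 100% = uninfected wells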
* hit, by the source's call; ? = inconclusive; . = not tested or not shown; & = joins results of further samples. Only part of the results is shown. The share of hits here may be higher or lower than overall.

SMILES	Arbovirus inh	Mtb bLac sens	Mtb growth	YopH PTP inh	RecA splice inh	others
CCOC(=O)c1sc(N(Cc2ccccc2)C(=O)COC(=O)c2cnccn2)nc1C	-9.2	0.5	8.7%	.	0.8
COc1cc(-c2nc(-c3ccc(NC(=O)c4ccc(Br)o4)cc3)no2)cc(OC)c1OC	-38.0	-0.6	4.4%	-13.8	2.1
CC(C)(C)C1CCc2[nH]nc(C(=O)O)c2C1 (centres undefined)	20.2	-0.1	-2.3%	-47.3	.
CCC(C)NC(=S)N(CCc1ccccc1)Cc1cc2cc(OC)c(OC)cc2[nH]c1=O (centres undefined)	-20.5	17.2	12.5%	-11.4	0.8
O=C(O)c1ccc(S(=O)(=O)N(Cc2ccc(F)cc2)C2CCCCC2)cc1	.	6.4	.	.	3.1
O=C1c2ccccc2NC(c2ccc(F)cc2)N1Cc1ccccc1 (centres undefined)	.	-2.2	.	.	0.5
CCC(=NCCN1CCOCC1)c1c(O)n(-c2ccccc2C)c(=O)[nH]c1=O	2.0	-7.2	-2.5%	-16.8	2.2
Cc1c(Br)c([N+](=O)[O-])nn1C(C)C(=O)NCc1cccnc1 (centres undefined)	-1.1	-1.4	-9.0%	-3.6	-1.9
Cc1c(C(=O)OC2CCCC2C)[nH]c2c1C(=O)CCC2 (centres undefined)	2.0	3.0	5.4%	-36.1	-1.0
COCCNC(=O)CSc1nc2ccccc2c(=O)n1CCCC(=O)NCc1ccccc1	-11.5	13.2	3.0%	-46.5	-1.5
CSc1nnc(C2CCCN2)n1C (centres undefined)	1.1	-0.4	5.2%	-57.9	0.1	Arbovirus inh repeat=1.0
O=C(N/N=C/c1ccccn1)c1cc(-c2ccc3ccccc3c2)n[nH]1	-18.3	85.5	23.0%	-15.6	2.0
O=C(CN1C(=O)COc2ccc(S(=O)(=O)N3CCOCC3)cc21)NCc1ccccn1	.	-4.1	0.7%	.	2.2
O=C1C(Cl)=C(NC2CCCCC2)C(=O)N1c1ccc(Cl)cc1	-4.3	72.8	9.5%	-28.4	0.3
Cc1occc1-c1nnc(SCC(=O)NC(=O)NC(C)C)n1N	5.2	3.2	-5.7%	-35.0	-2.2
COc1cc(OC)cc(C(=O)NC2CCSC2=O)c1 (centres undefined)	-3.0	-2.5	-1.6%	-9.6	0.0
COc1ccc(NC(=O)CCC(=O)OCc2ccc([N+](=O)[O-])cc2)cc1	8.6	2.0	-6.2%	.	1.4
O=C(CC1SC2=NCCN2C1=O)Nc1ccc(Br)cc1 (centres undefined)	-3.6	-6.5	-7.5%	14.7	1.2
CCN1CCN(Cc2nc3c(c(=O)n(C)c(=O)n3C)n2CC(=O)c2ccccc2)CC1	-7.5	-0.1	-3.8%	-13.2	3.4	Arbovirus inh repeat=1.0
NC(=O)C1Cc2ccccc2CN1C(=O)c1cccc(Oc2ccccc2)c1 (centres undefined)	.	-1.9	.	.	5.9
CC(C)(O[C@@H]1O[C@H](CO)[C@@H](O)[C@H](O)[C@H]1O)[C@H]1Cc2cc3ccc(=O)oc3cc2O1	30.4*	-3.5	4.3%	-13.5	-1.5
COc1cc(S(=O)(=O)N(Cc2ccccc2)Cc2ccccn2)ccc1-n1cnnn1	1.5	0.0	0.3%	-4.4	-0.8
Cc1ccc(S(=O)(=O)n2cnc3cc([N+](=O)[O-])ccc32)c(C)c1C	1.2	-7.7	-0.2%	-21.4	-0.3
O=C(CCS(=O)(=O)c1cccc2nonc12)Nc1cccc2c1CCCC2	-0.8	76.2	9.8%	-8.1	0.0
COc1ccccc1C(=O)C1CCCN(C(=O)c2snnc2C)C1 (centres undefined)	6.3	-2.5	-0.2%	.	-1.2
CC#CC[N+](C)(C)CCCCCCCC	.	-17.0	-2.6%	.	0.6
COc1ccc(NC(=O)c2sccc2SCC#N)cc1	9.2	49.6	-0.7%	-35.7	1.4
CCN1C(=O)N[C@H](c2ccc(Br)cc2)C(C(C)=O)=C1C	5.8	-2.3	-6.6%	3.6	4.5
CC(=O)NCc1ccc(C(=O)CCl)s1	-32.0	85.5	-11.3%	.	24.6
COC(=O)c1ccc(/C=C/C(=O)c2ccc(OC)cc2)cc1	10.9	99.7	?	-37.2	14.5
CCCCC[C@H]1CN(CCCC)C(=O)[C@@H]1CC(=O)NCc1ccccc1	.	-1.6	.	.	4.7
S=C(NCCCN1CCOCC1)Nc1ccc(N2CCOCC2)cc1	2.6	-3.9	-2.9%	.	-3.8
COCCCNC(=O)CCc1nnc2ccc(N3CCC(C)CC3)nn12	.	-0.2	.	.	-1.4
O=C(C1CCN(S(=O)(=O)N2CCOCC2)CC1)N1CCc2ccccc21	0.4	-6.2	-5.1%	-31.7	-1.0
CCOC(=O)C1CCN(C(=O)N(CC)CC)CC1	3.4	11.2	3.1%	.	-0.6
O=C(CSc1ccc(F)cc1)Nc1ccc(N2CCOCC2)cc1	.	-8.8	.	.	-2.9
Cc1ccc(-c2noc(CN3CCN(Cc4ccccc4)CC3)n2)cc1	18.0	-11.2	5.9%	6.1	1.7
COC(=O)C1CC(=O)c2ccsc2C1 (centres undefined)	7.8	-3.6	-3.1%	-11.4	-0.2
O=C(Cc1cc(=O)[nH][nH]1)N/N=C/c1ccccc1[N+](=O)[O-]	-16.2	-2.4	-13.6%	-33.0	86.9*
O=C(O)C(F)(F)C(NCc1ccccc1)c1ccccc1 (centres undefined)	.	-10.0	-10.9%	.	-0.2
CCc1c(C)nc2cc(-c3cccs3)[nH]n2c1=O	-5.0	.	-4.1%	-34.5	-2.0
COCCN(C(=O)CSc1nc2ccccc2c(=O)n1CCOC)c1c(N)n(Cc2ccccc2)c(=O)[nH]c1=O	2.9	-1.8	4.2%	.	2.3
CCCCC(=O)Nc1ccc(C2C(=O)c3ccccc3C2=O)cc1	.	-6.4	.	.	8.6
O=C(Cc1c(F)cccc1Cl)Nc1ccc(S(=O)(=O)N2CCCC2)cc1	.	-3.8	.	.	-1.7
Cc1cc(C)n(C(=O)CNC(=O)COc2ccccc2)n1	11.9	-1.4	0.2%	-23.0	.

By substructure: those above with a furan ring, fused or not
SMILES	Arbovirus inh	Mtb bLac sens	Mtb growth	YopH PTP inh	RecA splice inh	others
COc1cc(-c2nc(-c3ccc(NC(=O)c4ccc(Br)o4)cc3)no2)cc(OC)c1OC	-38.0	-0.6	4.4%	-13.8	2.1
Cc1occc1-c1nnc(SCC(=O)NC(=O)NC(C)C)n1N	5.2	3.2	-5.7%	-35.0	-2.2

(listing goes on)
SMILES	Arbovirus inh	Mtb bLac sens	Mtb growth	YopH PTP inh	RecA splice inh	others
COc1cc(NC(=O)c2c(Cl)cnn2C)c(OC)cc1Cl	-13.0	-9.8	0.0%	.	2.0
O=C(NC1CCCCC1)C1CCN(S(=O)(=O)c2cccc3nonc23)CC1	.	8.3	.	.	-0.9
COC(=O)c1ccc(C2N=C(c3cccs3)CC(c3ccccc3O)N2)cc1 (centres undefined)	-1.7	64.3	34.2%	.	-4.3
CC1CCN(CC(=O)Nc2ccc(S(=O)(=O)N3C(C)CCCC3C)cc2)CC1 (centres undefined)	.	-4.2	.	.	-0.1
O=C(c1ccccc1)c1c(-c2ccccc2)[nH]n(-c2ccccc2)c(=O)c1=O	.	-0.6	.	.	-1.3
COCCNc1nc(SCC(=O)N2CCN(c3ccccc3OC)CC2)nc2ccccc12	-21.4	-11.0	.	-16.0	-1.9
Cc1ccc(C2(C(=O)N3CCC(n4nc(-c5ccccc5)oc4=O)CC3)CC2)cc1	.	2.3	.	.	0.8
C[C@H](NC(=O)C1(c2ccccc2)CCN(C(=O)[C@H]2CSCN2C(=O)OC(C)(C)C)CC1)C(=O)O	14.2	-7.0	-4.8%	-7.0	-4.9&-3.1
O=C(NC(=O)c1ccncc1)NC(c1ccccc1)c1ccccc1	2.0	-2.9	-0.3%	18.6	6.0
Nc1ccc(N(c2ccccc2)c2ccc(N)cc2)cc1	-17.9	9.1	78.7%	1.0	0.8
CC(=O)c1ccc(NC(=O)CSc2nc(C)cc(C)c2C(N)=O)cc1	-2.5	-0.2	-1.3%	.	-0.1
CCN(CC)c1ccc(S(=O)(=O)N2CCOCC2)cc1NC(=O)CSc1nncs1	.	-7.5	.	.	-6.7
O=C(NCC1CC1)c1onc(CSc2ccc(F)cc2)c1C(=O)NCC1CC1	.	-2.1	.	.	3.1
COc1cc(Br)cc(CN2CCN(C)CC2)c1O	12.7	-12.1	1.3%	-46.4	-4.2
COc1ccc(-c2cc(C(=O)Nc3ccc(Br)cc3)no2)cc1	.	16.5	.	.	7.0
O=C(CCc1ccccc1)Nc1ccc(S(=O)(=O)N2CCCC2)cc1	8.2	5.0	-5.8%	.	3.1
O=S(=O)(CC(CN1CCCC1)N1CCCC1)c1ccc2ccccc2c1 (centres undefined)	2.4	-2.1	-0.5%	13.2	4.6
CC(C)Oc1cccc(C(=O)N/N=C/c2ccoc2)c1	.	-0.8	.	.	0.5
CCOC(=O)c1c(NC(C)=O)sc2c1CCCNC2=O	2.4	-12.0	0.8%	-35.3	-8.7
Cc1ccc(-n2c(C)cc(C(=O)Cn3nc(C(=O)O)c4ccccc4c3=O)c2C)cc1	4.8	3.5	-1.1%	-7.1	.
COc1ccc(S(=O)(=O)N(C)CC(=O)N2CCN(c3ccccc3)CC2)cc1	.	3.5	.	.	2.2
CCC1(C)CC(C(N)=S)CCO1 (centres undefined)	.	88.7	7.1%	.	-1.1
COc1ccc(-c2ccccc2NC(=O)C2CCCN(Cc3ccc(C)o3)C2)cc1 (centres undefined)	.	-3.2	.	.	2.4
COCC1COS(=O)(=O)NC1(C)C (centres undefined)	.	-2.5	.	.	-0.5
CCOC(=O)Cc1csc(NC(=O)CCCCCN2C(=O)c3cccc4cccc(c34)C2=O)n1	.	-2.1	6.9%	7.0	-2.6
COc1ccc(-c2cc(-c3ccc(Cl)cc3)n[nH]2)c(O)c1	.	60.7	.	.	3.4
CCNC(=O)CC1C(=O)N(c2ccc(C)cc2)C(=O)N1CCc1sccc1C (centres undefined)	6.2	-2.5	-3.7%	.	-2.4
CCOC(CCNC(=O)c1cn(CC(C)C)c(=O)c2c1c1ccccc1n2C)OCC	.	1.6	.	.	-10.9
COC(=O)CSc1nc2ccccc2n1CC(=O)N(C(C)C)C(C)C	-0.4	-1.6	-1.0%	-35.0	0.3

Grouped by structure: the entries above containing a halogen (16)
SMILES	Arbovirus inh	Mtb bLac sens	Mtb growth	YopH PTP inh	RecA splice inh	others
COc1cc(-c2nc(-c3ccc(NC(=O)c4ccc(Br)o4)cc3)no2)cc(OC)c1OC	-38.0	-0.6	4.4%	-13.8	2.1
O=C(O)c1ccc(S(=O)(=O)N(Cc2ccc(F)cc2)C2CCCCC2)cc1	.	6.4	.	.	3.1
O=C1c2ccccc2NC(c2ccc(F)cc2)N1Cc1ccccc1 (centres undefined)	.	-2.2	.	.	0.5
Cc1c(Br)c([N+](=O)[O-])nn1C(C)C(=O)NCc1cccnc1 (centres undefined)	-1.1	-1.4	-9.0%	-3.6	-1.9
O=C1C(Cl)=C(NC2CCCCC2)C(=O)N1c1ccc(Cl)cc1	-4.3	72.8	9.5%	-28.4	0.3
O=C(CC1SC2=NCCN2C1=O)Nc1ccc(Br)cc1 (centres undefined)	-3.6	-6.5	-7.5%	14.7	1.2
CCN1C(=O)N[C@H](c2ccc(Br)cc2)C(C(C)=O)=C1C	5.8	-2.3	-6.6%	3.6	4.5
CC(=O)NCc1ccc(C(=O)CCl)s1	-32.0	85.5	-11.3%	.	24.6
O=C(CSc1ccc(F)cc1)Nc1ccc(N2CCOCC2)cc1	.	-8.8	.	.	-2.9
O=C(O)C(F)(F)C(NCc1ccccc1)c1ccccc1 (centres undefined)	.	-10.0	-10.9%	.	-0.2
O=C(Cc1c(F)cccc1Cl)Nc1ccc(S(=O)(=O)N2CCCC2)cc1	.	-3.8	.	.	-1.7
COc1cc(NC(=O)c2c(Cl)cnn2C)c(OC)cc1Cl	-13.0	-9.8	0.0%	.	2.0
O=C(NCC1CC1)c1onc(CSc2ccc(F)cc2)c1C(=O)NCC1CC1	.	-2.1	.	.	3.1
COc1cc(Br)cc(CN2CCN(C)CC2)c1O	12.7	-12.1	1.3%	-46.4	-4.2
COc1ccc(-c2cc(C(=O)Nc3ccc(Br)cc3)no2)cc1	.	16.5	.	.	7.0
COc1ccc(-c2cc(-c3ccc(Cl)cc3)n[nH]2)c(O)c1	.	60.7	.	.	3.4
